miR-21 reporter: raises the signal of a miR-21 reporter; 340,000 tested, under 10 active; Potency, µM (highest dose often 38.3 µM), for the others: at the highest dose reporter change, positive = more light; HeLa miR-21 FLuc reporter, luciferase, 48 h; AID 2288; active = well fitted rising curve with a large enough effect; inconclusive = small, poorly fitted or top-dose-only effect; inactive = no such curve, though single readings can be large or run the other way;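 also: % of control where 0% means no effect; miR-21 action dims this reporter so a rising signal means less miR-21 action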
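Compounds were titrated across several concentrations (up to approximately 40 uM) and incubated 48 hours with HeLa miR-21-FLuc reporter cells (miR-21 target sequence downstream of FLuc, endogenous miR-21). Readout was firefly luciferase luminescence after lytic detection reagent.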
GLA inh pH 4.5: blocks human alpha-galactosidase A at pH 4.5; 230,000 tested, under 10 active; purified enzyme, 4-MU-alpha-Gal fluorescence, pH 4.5; activity change, negative = inhibition, % at 105 µM; P06280; inconclusive = small, poorly fitted or top-dose-only inhibition, or a rising curve; inactive = flat fitted curve, though single readings scatter; no compound was filed as active;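 also: 0% = full activity with enzyme and -100% = basal without enzyme; dose as in the result columns while the protocol names 77 µM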
Target sequence (P06280 whole entry, looked up): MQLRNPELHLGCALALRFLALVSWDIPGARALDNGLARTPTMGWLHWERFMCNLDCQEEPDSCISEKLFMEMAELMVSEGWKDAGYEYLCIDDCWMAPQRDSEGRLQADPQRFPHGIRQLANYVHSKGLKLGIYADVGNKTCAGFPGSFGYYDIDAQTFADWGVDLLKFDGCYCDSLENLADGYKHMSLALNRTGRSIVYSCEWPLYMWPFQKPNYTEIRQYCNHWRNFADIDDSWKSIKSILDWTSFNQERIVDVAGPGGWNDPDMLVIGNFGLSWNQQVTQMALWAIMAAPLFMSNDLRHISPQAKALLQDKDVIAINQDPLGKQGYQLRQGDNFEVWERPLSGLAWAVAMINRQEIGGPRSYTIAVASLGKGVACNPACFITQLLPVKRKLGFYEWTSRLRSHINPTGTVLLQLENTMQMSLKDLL
Rango-impB inh: prevents formation of the Rango-importin beta complex; Q14974; Rango CFP/YFP FRET sensor + importin beta, 45 min; hit rate 0.031% among 340,000; Potency, µM (series often up to 92.2 µM), without a hit: at the top dose inhibition of complex formation; active = rising FRET ratio curve, often small or poorly fitted; inconclusive = mostly compound fluorescence or quenching in the first reads; inactive = flat curves in all reads;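 also: potency is read from the fitted curve at half-maximal effect; 0% = DMSO wells and 100% = buffer wells lacking importin beta; nearly all actives have a fitted effect of over 15% in size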
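FRET biosensor Rango (snurportin 1 IBB between N-terminal EYFP and C-terminal Cerulean), 50 nM in PBS/1 mM DTT/0.02% Tween-20/0.1% BSA, preincubated 5 min RT with compound; 0.125 microM importin beta added, 45 min RT, CFP/YFP FRET ratio read.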
Rango dissoc inh: inhibitors of RanGTP-induced Rango-importin beta complex dissociation; O95149+P62826; Biochemical FRET Rango-importin beta, RanGTP-induced dissociation; Potency, µM (highest dose often 46.1 µM), without a hit: at the highest dose activity change, negative = inhibition; hit rate 0.071% among 340,000; AID 540253; active means falling FRET ratio curve, often poorly fitted, with flat reads before Ran was added; inconclusive means other falling curves, or compound fluorescence or quenching; inactive means flat or rising ratio curve;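 also: potency is read from the fitted curve at half-maximal effect; % of control where 0% means no effect; nearly all actives have a fitted effect of over 45% in size; -100% = wells without RanGTP and RCC1; the record marks most hits as doubtful in a second field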
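FRET read at 45 min, room temperature: inhibitors block the CFP/YFP signal rise when RanGTP (0.6 uM Ran, 2 mM GTP, 0.2 uM RCC1) frees Rango (0.1 uM) from importin beta (0.25 uM). Pre-read after 5 min compound exposure flags interference.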
* hit, by the source's call; ? = inconclusive; nt = not tested or not shown; & = joins results of further samples.

SMILES	miR-21 reporter	GLA inh pH 4.5	Rango-impB inh	Rango dissoc inh
COc1ccc(C(CC(=O)N2CCCC2)c2c(OC)cc(OC)c3ccc(=O)oc23)cc1 (stereo not given)	-7%	9	-4.4%	-8%
COc1cc(N=Nc2ccccc2C(=O)O)ccc1O	7%	-7	-0.2%	-4%
CN(CC(=O)Nc1ccccc1Cl)C(=O)CCSc1ccc(F)cc1	nt	nt	0.9%	-4%
O=C(COc1ccccc1Cl)Nc1ccc2oc(=O)ccc2c1	-14%	nt	0.4%	0%
Cc1cccc(N2CCN(c3ccc4cc(S(=O)(=O)N5CCCCC5)ccc4n3)CC2)c1C	4%	nt	-2.2%	41%
COc1cccc(S(=O)(=O)Nc2ccc3c(c2)OCCO3)c1	-5%	nt	-1.2%	-4%
CN(CC(=O)Nc1ccc(F)cc1)C(=O)c1ccncc1	16%	nt	-0.2%	4%
Cc1[nH]n(-c2ccc(Cl)cc2)c(=O)c1C(=O)c1ccccc1	23%	3	-1.2%	-4%
CCCCn1c(N)c(N(CC(C)C)C(=O)c2cccc(S(=O)(=O)N(C)c3ccccc3)c2)c(=O)[nH]c1=O	nt	nt	-0.9%	-7%
COc1ccc(CC(=O)OCC(=O)NCCNC(=O)COC(=O)Cc2ccc(OC)cc2)cc1	nt	nt	2.8%	2%
CC[C@@H](C)[C@@H]1CN([C@@H](CN2CCC[C@H]2CN2C(N)=NC[C@H]2CC(C)C)C(C)C)C(=N)N1CCc1ccc(Cl)c(Cl)c1	nt	nt	2.2%	0%
COc1ccc(NC(=O)c2ccccc2SC)cc1OC	-24%	-1	-2.1%	2%
CCCNS(=O)(=O)c1ccc(CCC(=O)N2CCN(c3ccc(F)cc3)CC2)cc1	16%	5	2.5%	-5%
CCCn1c2ccc(/C(C)=N\O)cc2c2cc(/C(C)=N/O)ccc21	-18%	-6	?	14%
CCOC(=O)N1CCN(C(=O)C2CCN(Cc3ccc(OC)cc3OC)CC2)CC1	-4%	-10	-0.8%	-10%
O=C(c1ccc2ccccc2n1)N1CCN(S(=O)(=O)c2ccccc2)CC1	nt	nt	-2.7%	22%
O=C(NC1CCCCCC1)C1C2C=CC3(CN(Cc4cccnc4)C(=O)C13)O2 (stereo not given)	-2%	-2	-0.8%	-4%
O=C(NCCCc1ccccc1)c1ccc([N+](=O)[O-])cc1Cl	-56%	nt	-0.1%	24%
COc1cc2c(cc1OC)C(c1ccccc1)N(C(=O)c1ccco1)CC2 (stereo not given)	-8%	-2	?	-15%
C[C@H](NC(=O)c1[nH]cnc1C(=O)Nc1ccccc1)c1ccccc1	nt	nt	0.2%	1%

A portion of the results above, for reference:
SMILES	miR-21 reporter	GLA inh pH 4.5	Rango-impB inh	Rango dissoc inh
COc1cc(N=Nc2ccccc2C(=O)O)ccc1O	7%	-7	-0.2%	-4%
CN(CC(=O)Nc1ccccc1Cl)C(=O)CCSc1ccc(F)cc1	nt	nt	0.9%	-4%
O=C(COc1ccccc1Cl)Nc1ccc2oc(=O)ccc2c1	-14%	nt	0.4%	0%
Cc1cccc(N2CCN(c3ccc4cc(S(=O)(=O)N5CCCCC5)ccc4n3)CC2)c1C	4%	nt	-2.2%	41%
COc1cccc(S(=O)(=O)Nc2ccc3c(c2)OCCO3)c1	-5%	nt	-1.2%	-4%

Continuation:
SMILES	miR-21 reporter	GLA inh pH 4.5	Rango-impB inh	Rango dissoc inh
O=C(NCCCN1CCOCC1)c1cc2ccccc2oc1=O	-8%	-4	0.6%	-15%
CC(C)(NO)/C(=N/O)c1ccc(Br)cc1	-6%	0	0.6%	1%
O=C(NC(=S)N(Cc1ccccc1)Cc1ccccc1)c1ccccc1F	12%	2	-6.6%	-19%
COc1ccc(C(=O)NCCCNC(=O)c2ccccn2)cc1Br	-18%	nt	1.8%	0%
Cc1nn(Cc2ccccc2Cl)c(C)c1NC(=O)c1ccn(C)n1	-6%	13	0.1%	-12%
COc1ccc(CNC(=O)CSc2ncn[nH]2)cc1	-6%	-4	0.3%	?
Cc1cc(C(=O)NCc2ccccc2F)cs1	-24%	-4	6.5%	-7%
O=S(=O)(NCCc1nc2ccccc2[nH]1)c1ccccc1	nt	nt	0.5%	-13%
CS(=O)(=O)N(CC(=O)NCCSc1ccccn1)c1ccc(F)cc1	-2%	-17	2.0%	1%
CCCCn1nc2cc(C(=O)NCc3ccc(OC(F)(F)F)cc3)ccc2c1OC	0%	0	-2.0%	2%
C/C(=N\NC(=O)COc1ccc([N+](=O)[O-])cc1)c1ccco1	nt	nt	-1.8%	-4%
Cc1ccc(CN2[C@@H](Cc3ccccc3)C(=O)CS2(=O)=O)cc1	nt	nt	-2.3%	-10%
COc1ccc(OC)c(/C=N/NC(=O)CNC(=O)c2ccc(S(=O)(=O)N3CCOCC3)cc2)c1	-5%	7	-2.7%	1%
Nc1c(C(=O)N2CCCCCC2)oc2ccccc12	-25%	nt	2.3%	43%
CCOC(=O)C1Cc2c([nH]c3ccccc23)C(C)N1 (stereo not given)	-3%	-4	?	-2%
CC(=O)Nc1ccc(NC(=O)CSc2nnc(-c3cccs3)n2C)cc1	1%	nt	0.3%	0%
CN=C(C)/C(C(=O)OC)=C(/O)c1c(F)cccc1F	3%	0	-4.1%	6%
CCN(CC(=O)Nc1ccc(OC)cc1)C(=O)c1ccc2ccccc2c1	nt	nt	-1.4%	10%
O=C(NCC(=O)N(Cc1cccs1)C(C(=O)NC1CCCC1)c1ccncc1)c1ccco1 (stereo not given)	-4%	-9	2.2%	5%
COc1ccc2cc3c(N)nn(C(=O)c4cccc(F)c4)c3nc2c1	7%	7	-3.4%	6%
COc1ccc(-c2cc(C(=O)NCc3ccccc3)no2)cc1OC	-16%	-9	0.1%	4%
O=C(c1cccc(Oc2ccc([N+](=O)[O-])cc2)c1)N1CCOCC1	3%	nt	3.5%	2%
O=C(O)c1ccccc1C(=O)c1ccc(N2CCOCC2)c([N+](=O)[O-])c1	-1%	1	-0.5%	-10%
CC(=O)Nc1ccc(-c2csc(NC(=O)CC(NC(C)=O)c3ccccc3)n2)cc1 (stereo not given)	-3%	nt	1.0%	-15%
Cc1sc(NC(=O)c2cccs2)nc1-c1ccccc1	-10%	-8	?	?
CCCN1CCN(C(=O)CCn2c(=O)c3cccn3c3cccnc32)CC1	2%	nt	-1.3%	9%
CCOc1ccc2nc(N=NC3=C(O)CC(C)(C)CC3=O)sc2c1	1%	-3	0.7%	0%
CC(C)(C)c1ccc(C(=O)N2CCC(=O)N(C(COCc3ccccc3)Cc3ccccc3)CC2)cc1 (stereo not given)	11%	3	0.5%	1%
CCOc1ccc(-c2nc(C#N)c(N3CCN(C)CC3)o2)cc1	-13%	-1	-1.9%	1%
O=C1CCN(Cc2ccc([N+](=O)[O-])cc2)CCN1[C@H](CO)Cc1ccccc1	1%	nt	-0.8%	21%
O=C(CN1C(=O)c2ccccc2S1(=O)=O)NC1CCCCC1	-8%	nt	1.1%	3%
O=C(O)COCC(=O)Nc1ccc(-n2cnnn2)cc1	1%	-8	0.2%	-13%
COc1cc(/C=C/C(=O)OCc2csc(CC(=O)Nc3ccc(C)cc3)n2)ccc1OCC#N	nt	nt	1.1%	0%
O=C(CNC(=O)c1ccc(Br)o1)Nc1ccncc1	nt	nt	-0.7%	10%
CN(C)c1ccc(CN2CCC(C(N)=O)CC2)cc1	-3%	-11	-0.9%	-2%
O=C(c1ccc(Cl)c(S(=O)(=O)N2CCCCCC2)c1)N1CCCC(C(F)(F)F)C1 (stereo not given)	nt	nt	?	14%
O=C(O)CN1C(=O)/C(=C\c2cc(Br)ccc2OCc2ccccc2F)SC1=S	-14%	nt	4.4%	9%
CN(C)c1[nH]c(=O)c(C#N)c2c1CCN2Cc1ccccc1	-1%	2	1.0%	-3%
N/C(=N\OC(=O)Nc1ccccc1)c1ncc(C(F)(F)F)cc1Cl	-28%	-4	?	12%
CN(c1cccc(NC(=O)Cc2ccccc2)c1)S(C)(=O)=O	-15%	-4	0.6%	1%
CC1CC(=O)N(CC(=O)NC2CCCCC2)c2ccccc2S1 (stereo not given)	-1%	nt	0.2%	-9%
CCCc1cc(NC(=O)COC(=O)c2ccc(O)cc2O)n(-c2ccccc2)n1	nt	nt	-0.2%	-14%
N#CCCN(C(=O)COC(=O)CCN=C1NS(=O)(=O)c2ccccc21)c1ccc(F)cc1	nt	nt	-1.8%	0%
N#Cc1ccccc1OCC(=O)NCC(c1ccc(F)cc1)N1CCOCC1 (stereo not given)	nt	nt	3.0%	-4%
O=C(c1ccco1)N1CCN(C(=O)c2ccc(CS(=O)c3cccc(Cl)c3)o2)CC1 (stereo not given)	2%	nt	-0.9%	-3%
Cc1ccc(OCCCSc2n[nH]c(N)n2)cc1	-38%	3	1.8%	8%
O=C(Cc1ccccc1)NNC(=O)c1ccc(NC(=O)c2ccccc2)cc1	-26%	-9	-0.8%	2%
CCC1CCCCN1c1ccc([N+](=O)[O-])cc1/C=N/NC(=O)Cn1c2ccccc2c(=O)c2ccccc21 (stereo not given)	-3%	5	-6.5%	-19%
CC(=O)c1ccc(NC(=S)N2CCN(S(=O)(=O)c3ccc(F)cc3)CC2)cc1	0%	nt	-1.6%	7%
CC1Cc2ccccc2N1C(=O)c1ccc2c(c1)nnn2C (stereo not given)	-15%	0	-1.4%	-4%
O=[N+]([O-])c1ccc(N2CCSCC2)cc1O	-14%	-8	3.7%	28%
Cc1nnc(SCC(=O)N2CCN(S(=O)(=O)c3ccc(Cl)cc3)CC2)[nH]c1=O	-9%	9	-0.9%	4%
O=C(N/N=C/c1c[nH]c2ccc(Br)cc12)C1CC1	-1%	-6	-1.6%	0%
Cc1cc(F)ccc1NS(=O)(=O)c1c(C)nc2scc(C)n2c1=O	2%&0%	nt	0.4%	1%
Cc1cc(C)nc(SCc2nnc(SCC(=O)Nc3cc(C(F)(F)F)ccc3Cl)o2)n1	0%	-2	-6.3%	2%
COC(=O)c1ccc(COC(=O)c2ccc(SC)cc2OC)cc1	-49%	4	-3.2%	-15%
CC(=O)c1cccc(NC(=O)COC(=O)c2cccc(N3C(=O)c4ccccc4C3=O)c2)c1	-7%	-2	0.3%	-1%
CCOc1ccccc1NC(=O)c1ccccc1-c1nc(-c2ccccc2)no1	16%	-6	0.9%	1%
COc1ccc2nc(N=NC3=C(O)CC(C)(C)CC3=O)sc2c1	6%	-3	1.4%	-21%
CCOc1ccc(NC(=S)Nc2cc(C)[nH]n2)cc1	-46%	8	-3.7%	-5%

More compounds follow:
SMILES	miR-21 reporter	GLA inh pH 4.5	Rango-impB inh	Rango dissoc inh
Cc1cc(=O)oc2ccc(OCC(=O)N3CCc4ccccc43)cc12	-9%	0	-5.3%	32%
COc1ccc(NC(=S)N(CCc2ccc(OC)c(OC)c2)Cc2ccccn2)cc1	-10%	-20	-2.0%	-10%
COc1cc(/C=C/C(=O)c2ccc(C)cc2)ccc1OCC#N	?	-13	-2.2%	-6%
CN(C)c1ccc(CNC(=O)c2cc(S(=O)(=O)N3CCCC3)cn2C)cc1	2%	nt	1.1%	-7%
COc1ccccc1NC(=O)c1ccc2c(c1)nnn2C	-15%	3	-2.6%	-3%
Cc1ccc(-c2nc(-c3cccnc3)no2)c(C)c1	-55%	3	-0.2%	-7%
COc1ccc(C2CC(c3ccccc3)Nc3ncnn32)cc1 (stereo not given)	-10%	7	0.1%	-14%
COc1cc(CNCc2ccc(OC)cc2OC)cc(OC)c1	10%	nt	-1.7%	-8%
Cc1ccc(C(=O)N/C(=C\c2ccccc2)C(=O)NCCN2CCOCC2)cc1	-5%	nt	-3.1%	-18%
CCOC(=O)C1CCN(S(=O)(=O)c2ccc(-c3nc4ccccc4s3)s2)CC1	-41%	4	?	?
COc1ccc(NC(=O)N2CCN(c3ccc([N+](=O)[O-])cc3)CC2)cc1OC	12%	-7	-0.4%	-19%
Cc1cc(C)cc(OC(=O)CS(=O)c2ccc(C(F)(F)F)cc2[N+](=O)[O-])c1 (stereo not given)	20%	6	1.0%	6%
C=COC(=O)c1sc2nc(C)cc(C)c2c1N	-17%	2	-2.4%	-10%
Cc1ccc(-n2nc(-c3cccnc3)cc2C(=O)N2CCOCC2)c(C)c1	-8%	4	2.1%	-5%
O=C(CSc1ccc(Cl)cc1)Nc1ncccn1	-3%	-1	1.1%	-13%

Screens from PubChem.

Only part of the results is shown. The share of hits here may be higher or lower than overall.
